Screens as filed in PubChem BioAssay.
Beta apoptosis: blocks beta cell apoptosis. INS-1E cytokine-induced death, ATP luminescence, 48 h; percent of positive-control rescue, neutral wells zero. protection from apoptosis, % (no concentration beside the values). 0.8% of 300,000 active. AID 435005;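 active means all replicates at 75% or more, or half of them and the mean; inconclusive means half reach 75% but not the mean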;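 further: 0% = cytokine-treated negative control wells and 100% = positive control rescue; higher means more ATP so stronger rescue from cytokine killing; wells of about 40 µL received 100 nL stock; the first replicate is given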
Bfl-1 A1 inh: inhibitors of the anti-apoptotic protein A1, read as caspase activation | MEF A1-2A-BIM cells, Caspase-Glo 3/7 luminescence, 3 h; percent of clofoctol response, vehicle zero | caspase activation, % (no concentration beside the values) | 0.066% of 330,000 active;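 active means over half of replicate activation scores above 10%, or exactly half above 10 with the replicate mean above 10; inconclusive means replicate mean below 10 yet half the replicates above 10; inactive means over half of replicates below 10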;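 further: wells of about 30 µL received 50 nL stock; many hits fall short of the cut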
Calb FLC: affects C. albicans growth with fluconazole; C. albicans CaCi-2 (fluconazole-resistant clinical isolate) + fluconazole, Alamar Blue growth, 48 h; growth inhibition, % (test concentration not listed); 0.57% of 300,000 active;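 active means most replicates above 75%; inconclusive means exactly half above 75%; inactive means most below 75%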;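 further: all wells also contain fluconazole at 8 µg/ml as a sub-toxic cotreatment; 0% = median of DMSO wells and 100% = median of geldanamycin control wells; wells of about 8 µL received 7.5 nL stock; the first replicate is given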
Vif TR-FRET: HIV-1 Vif–A3G interaction blockers – biochemical, TR-FRET, GST-Vif 1-94, biotin-A3G peptide, dose response retest, primary screen (AID 1117319) | TR-FRET GST-Vif / biotin-A3G peptide binding; higher % means a stronger effect; test concentration not given here; strong numbers were not always called active | inhibition, %; hits with a dose series show IC50 in µM | 0.57% of 260,000 active;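 active means above the screen mean plus three standard deviations and confirmed in dose response; inconclusive means results disagree or hit not tested in dose response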;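 further: Vif residues 1-94 fused to GST binding biotinylated APOBEC3G peptide 110-148; 0% = full assay without inhibitor and 100% = GST in place of GST-Vif; retest series ran down from 100 µM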
AF4-AF9 inh: inhibitors of human MLL-AF4/AF9 interaction; P42568; AlphaScreen, biotin-AF4 peptide binding to FLAG-AF9; inhibition, % at 10 µM; 0.47% of 350,000 active;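 active means every replicate reaching a set inhibition limit, whatever the replicate mean, cut at about 25% in these data; inconclusive means mean inhibition reaches that limit but some replicates miss it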;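 further: 0% = plate neutral control median and 100% = total signal loss; the record names both 10 and 1 µM as test concentration; the first replicate is given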
Target sequence (P42568 whole entry, looked up): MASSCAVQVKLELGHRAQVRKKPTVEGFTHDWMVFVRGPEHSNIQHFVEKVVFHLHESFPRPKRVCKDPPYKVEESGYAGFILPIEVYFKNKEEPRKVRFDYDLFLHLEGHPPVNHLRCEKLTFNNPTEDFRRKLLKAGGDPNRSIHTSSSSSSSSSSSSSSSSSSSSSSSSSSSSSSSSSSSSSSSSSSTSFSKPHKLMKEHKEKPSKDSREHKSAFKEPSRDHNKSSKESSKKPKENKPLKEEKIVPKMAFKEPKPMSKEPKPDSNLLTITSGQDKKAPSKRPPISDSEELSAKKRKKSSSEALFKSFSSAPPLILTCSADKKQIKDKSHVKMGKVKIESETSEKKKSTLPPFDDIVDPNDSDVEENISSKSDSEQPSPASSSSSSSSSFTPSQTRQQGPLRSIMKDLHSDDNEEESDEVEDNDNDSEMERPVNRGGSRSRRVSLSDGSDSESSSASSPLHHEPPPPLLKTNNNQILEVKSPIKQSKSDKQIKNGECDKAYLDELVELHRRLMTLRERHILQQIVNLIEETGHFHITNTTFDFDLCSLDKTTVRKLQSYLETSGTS
rRNA inh HTS: inhibitors of bacterial rRNA selective over humanized ribosomes. GFP signal change (wild-type ribosome), % (test concentration not listed). 1.6% of 350,000 active. E. coli WT GFP vs humanized-ribosome RFP mutants, fluorescence, 24 h; active compounds read low; DMSO median 0, no signal -100;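 active means significant combined selectivity score with lowered wild-type GFP, culture density cut under 30%, mutant RFP and density less affected; inactive means any of these conditions unmet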; further: one replicate is shown; some compounds called inactive have numbers as strong as hits
T cruzi inh: T. cruzi replication inhibition; inhibition, % (test concentration not listed); T. cruzi beta-gal in NIH3T3, luminescence, 90 h; 1.4% of 300,000 active;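 active means mean inhibition across valid replicates above about 55%, limit read from the data; inconclusive means mean below that limit but half or more replicates reach it; inactive means mean below it, under half of replicates reach it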;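 further: signal also drops with host cell toxicity which is not excluded here; 0% = plate median of DMSO wells and 100% = zero luminescence signal; higher percent means less beta-gal luminescence so fewer parasites; stock transfer was 50 nL into about 50 µL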
RanGTP-Imp inh: inhibitors of RanGTP-importin-beta interaction, primary screen, biochemical, FRET, CFP-Ran, YFP-importin-beta, homogeneous; cell-free CFP-Ran/YFP-importin-beta FRET ratio; inhibition, % (concentration not given with the values); 1.1% of 300,000 active; AID 2216;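 active means most replicates above 15%; inconclusive means exactly half above 15%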;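 further: 0% = DMSO wells and 100% = Ran loaded with GDP instead of GTP; wells of about 40 µL received 100 nL stock; the first replicate is given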
rRNA inh HTS OD600: further read-out of rRNA inh HTS, marked with its call; OD600 change, %; measured here: OD600 growth;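 optical density of the mix in the first replicate; 0 = DMSO median and -100 = no signal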
rRNA inh HTS RFP: also measured in rRNA inh HTS; calls as there; RFP signal change, %; measured here: RFP humanized mutant strains;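 first replicate; 0 = DMSO median and -100 = no signal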
* marks the source's active call; other numbers are inactive results; ? = inconclusive; / = not tested or not shown; & = joins results of further samples.

mol	rRNA inh HTS RFP	T cruzi inh	rRNA inh HTS OD600	Bfl-1 A1 inh	Calb FLC	AF4-AF9 inh	Vif TR-FRET	RanGTP-Imp inh	rRNA inh HTS	Beta apoptosis
CC(C(=O)NC1CCCc2ccccc21)N1CCN(Cc2ccc3c(c2)OCO3)CC1 (stereo not given)	/	21	/	0.4	-27	/	5%	?	/	3
CC1(NC(=O)N2CCCCC2)CCS(=O)(=O)C1 (stereo not given)	/	-23	/	/	-11	/	19%	-1.5	/	-4
COc1ccc(CC(=O)NNC2=Nc3cccc4cccc2c34)cc1OC	-0.9	8	5	1.6	-1	6.0	-6%	5.0	17	-2
CCOC(=O)c1ccc(NC(=S)NCCCN2CCCC2=O)cc1	-4.0	-1	1	0.2	-4	-1.9	1%	1.0	-20	0
Cc1c([N+](=O)[O-])cc(C(=O)Nc2ccc3ncccc3c2)cc1[N+](=O)[O-]	-1.4	42	12	0.6	4	-4.3	-1%	1.9	4	-7
CC1Cc2ccccc2N1C(=O)CSCC(=O)O (stereo not given)	/	6	/	0.3	-5	/	0%	-1.0	/	-4
O=C(C1CCCN(Cc2nc(-c3ccc(Cl)cc3)no2)C1)N1CCOCC1 (stereo not given)	-0.9	2	-4	0.6	-5	-1.2	9%	-2.4	2	-1
COc1ccc(OC)c2c(C)cc(N3CCCN(C)CC3)nc12	/	30	/	-0.2	5	/	4%	1.5	/	-11
COC(=O)Nc1nc2ccc(Br)cc2s1	1.4	42	8	0.5	5	-0.7	8%	0.9	4	3
Cc1ccccc1NC(=O)Cn1nc(C)c2ccccc2c1=O	-2.0	-4	9	-0.1	0	-4.3	19%	-0.4	4	/
CCOC(=O)C1(CCOc2ccccc2)CCN(Cc2cccs2)CC1	/	39	/	1.4	24	1.7	-5%	0.2	/	7
COc1ccc(-n2c(Cc3cccn3C)nnc2SCC(=O)N2CCOCC2)cc1	0.7	-5	2	0.2	4	-0.3	32%	-1.4	13	-4
Cc1cc(C)c(C)c(S(=O)(=O)N[C@@H](C)C(=O)OCc2cc(=O)n3cc(Br)ccc3n2)c1C	-1.1	-4	-4	1.3	4	-0.6	-40%	-3.9	-3	-3
Cc1nnsc1C(=O)NNC(=O)Nc1ccccc1	3.0	5	-7	-1.8	14	-4.3	/	0.9	1	-2
COc1cccc(CNC(=O)CSCc2cnn(-c3ccccc3)c2-n2cccc2)c1OC	/	8	/	2.5	-1	/	8%&3%	-3.0	/	/
COc1cccc(NC(=O)CN(C)C(=O)c2c(-c3c(F)cccc3Cl)noc2C)c1	3.6	/	7	0.6	/	1.2	9%	/	0	1
O=C(NCCCN1CCOCC1)C1CCN(S(=O)(=O)c2cccc(C(F)(F)F)c2)CC1	-0.5	/	8	-0.2	/	-1.8	/	/	7	-3
Cc1oc(-c2ccccc2Cl)nc1CS(=O)(=O)CC(=O)NC1CCCC1	-0.2	6	-9	1.9	0	-3.7	/	-1.0	4	-3
Cc1cccc(NC(=O)c2ccccc2-c2ccccc2)c1	-20	-12	-69	0.7	-3	-17	-7%	4.2	-43	-10
COc1ccc(C(=O)CCC(=O)Nc2ccc(N3CCN(C)CC3)cc2)cc1OC	-1.6	/	15	0.7	/	5.6	2%	/	4	1
CC1CCN(S(=O)(=O)c2ccc3c(c2)c(=O)c(C(=O)NCc2cccs2)cn3C)CC1	/	-1	/	0.3	-8	/	18%	-1.5	/	1
Cc1nn(Cc2cccc(C(=O)NC3CCCCC3)c2)c(C)c1Cl	/	29	/	-0.3	2	/	-8%	-5.7	/	0
COc1ccccc1/C=N/OCc1cc(C(C)=O)ccc1OC	-0.2	-6	-21	1.0	-4	3.7	-6%	3.4	0	?
CC(=O)n1cc([C@@H]2C=C(C(=O)N3CCN(Cc4ccc5c(c4)OCO5)CC3)O[C@H](OCc3ccc(CO)cc3)C2)c2ccccc21	-4.0	41	0	0.8	21	0.7&4.1	/	7.7	5	21
Cc1ccc(-c2nc3ccccc3n2C)o1	/	2	/	-8.6	3	/	-3%	-1.7	/	12
NC(=O)c1nsnc1-c1ccccc1O	/	-11	/	0.8	4	/	64%	-0.6	/	-8
C=CC(C)(C)c1c(O)c(CC=C(C)C)c(O)c2c(=O)c3ccc(O)c(O)c3oc12	/	?	/	-0.4	84*	/	/	-0.7	/	107*
COc1ccc(C(=O)N2CCCN(C)CC2)cc1S(=O)(=O)N(C)Cc1ccccc1	0.6	/	7	0.2	/	1.6	-3%	/	5	0
COc1ccc(C2/C(=C(/O)c3ccc4c(c3)CC(C)O4)C(=O)C(=O)N2CCCN2CCOCC2)cc1 (stereo not given)	-3.1	-12	8	-0.4	2	-0.1	-5%	-2.1	4	-1
O=C(CS(=O)(=O)Cc1ccccc1)Nc1nc2c(s1)CCCC2	/	-2	/	0.9	3	/	4%	1.4	/	3
N#Cc1ccc(OCC(=O)Nc2cccc(S(=O)(=O)NC3=NCCCCC3)c2)cc1	1.4	4	5	-0.3	1	1.8	1%	-0.8	0	-5
c1ccc(CN2CCOCCOCCOCCOCCOCCOCC2)cc1	-2.7	3	4	1.4	16	-3.1	13%	-5.1	1	-4
Cc1ccccc1OCCC(=O)OCC(=O)NC(=O)c1ccccc1	-1.4	-7	2	-0.1	-20	-0.4	-4%	4.8	3	/
NC(=O)C1CCN(C(=O)C(=O)c2cn(CC(=O)N3CCCCCC3)c3ccccc23)CC1	-0.9	62*	10	0.2	-5	0.4	0%	3.4	8	2
CC(C)OC(=O)c1cccnc1SCc1cc(=O)n2ccccc2n1	/	2	/	0.6	-3	/	-2%	-2.9	/	-1
O=C(c1cccc([N+](=O)[O-])c1)N1CCN(C(=O)c2ccco2)CC1	0.0	-5	12	-0.3	-9	0.9	2%	5.2	14	0
Cc1cc(Cl)ccc1OCCCC(=O)NCCN1C(=O)S/C(=C\c2cccnc2)C1=O	22	-4	-13	-0.4	4	-1.0	/	0.8	-8	-3
COC(=O)c1c(NC(=O)Cc2ccccc2)sc(C)c1C	0.1	15	8	0.7	0	/	2%	4.7	-2	4
CCN1C(=O)C(=O)N(CC(=O)Nc2ccccc2OC(F)F)C1=O	/	/	/	-2.3	/	-0.5	24%	/	/	-4
CCN(CC)S(=O)(=O)c1cccc(NC(=O)COC(=O)CCc2nc3ccccc3s2)c1	2.1	-13	-9	-0.9	-7	-32	-5%	7.4	-14	-4
COc1ccc(C(=O)c2ccccc2)c(OCC(=O)N(C)C)c1	-1.2	-5	5	1.0	-9	4.0	-10%	-2.0	4	0
Cc1nc(SCC(=O)NCCN2C(=O)CSC2=O)nc(C)c1C	0.0	/	19	0.8	/	-1.1	/	/	5	-4
CCCCCCP(=O)(O)c1ccccc1	/	-15	/	-0.2	-1	/	0%	0.1	/	-2
Cc1noc(C)c1CSc1nnc(-c2cccnc2)n1C1CCCCC1C (stereo not given)	/	7	/	0.7	-5	/	3%	-1.3	/	-9
COc1ccc(OC)c(S(=O)(=O)N2Cc3ccccc3CC2C(=O)O)c1 (stereo not given)	/	-1	/	1.1	-6	/	6%	-2.9	/	-4
Cc1cc(NC(=O)C2CCN(S(=O)(=O)c3cnc[nH]3)CC2)ccc1Br	/	-5	/	0.1	-2	/	10%	4.1	/	-2
O=C(CC(C(=O)O)c1ccc(Cl)cc1Cl)c1ccc(Cl)cc1 (stereo not given)	-0.5	-11	-11	0.2	2	-2.6	5%	1.3	-1	-8
COc1cc(/C=C/C(=O)OCC(=O)Nc2sc3c(c2C#N)CCC(C)C3)ccc1OCC#N (stereo not given)	1.7	-1	3	0.3	14	-1.3	/	-1.8	8	1
O=C(NCCC1=CCCCC1)C1CCN(S(=O)(=O)c2ccccc2C(F)(F)F)CC1	3.0	5	5	-0.4	0	-0.9	-1%	0.1	8	6
COc1cc(/C=C2\C(=N)N3N=C(S(C)(=O)=O)SC3=NC2=O)ccc1OC(=O)c1ccco1	2.3	5	13	-2.0	36	-0.6	/	0.0	7	-6
CCc1cc(C(=O)N2CCCC(C(=O)c3ccc(OC)c(F)c3)C2)n(C)n1 (stereo not given)	-2.4	-21	-3	0.0	9	-0.3	/	?	0	-4
CCOC(=O)N1CCN(CCc2ccccc2)CC1	-1.6	-11	2	-0.3	5	-1.8	/	?	1	-6
Cc1ccccc1C(=O)N1CCN(C(c2ccccc2)c2ccccc2)CC1	/	9	/	1.4	-1	4.5	1%	-0.6	/	-2
CC1=C(C(=O)OC(C)C)C(c2ccccc2Cl)CC(=O)N1 (stereo not given)	/	-9	/	-0.1	-2	/	-3%	0.1	/	/
O=C(CSc1ccccc1)Nc1cccc(S(=O)(=O)N2CCCCC2)c1	1.2	/	-33	0.3	/	-4.9	-9%	/	-1	-5
Cc1ccc(NC(=O)c2ccco2)c(NC(=O)C2CCCO2)c1 (stereo not given)	2.8	1	5	0.0	7	-1.2	-1%	?	17	3
NC(=O)c1ccc(NC(=O)C2CC(=O)N(c3ccc4c(c3)OCCO4)C2)cc1 (stereo not given)	-4.6	/	9	-0.5	/	0.1	/	/	4	-3
C=Cc1ccc2c(c1)OCCOCCOCCOCCOCCO2	-0.3	1	13	0.1	-19	0.0	/	4.3	4	-2
CCOc1cc(C(=O)NC(C)CCc2ccccc2)cc(OCC)c1OCC (stereo not given)	1.2	12	5	0.4	5	-4.9	/	-0.8	5	3
COc1ccc(NC(=O)N2CCOCC2)cc1OC	/	-4	/	-1.1	2	/	9%	-0.1	/	-3

Going on with the list:
mol	rRNA inh HTS RFP	T cruzi inh	rRNA inh HTS OD600	Bfl-1 A1 inh	Calb FLC	AF4-AF9 inh	Vif TR-FRET	RanGTP-Imp inh	rRNA inh HTS	Beta apoptosis
CCn1c2ccccc2c2cnc(N=CN(C)C)c(C#N)c21	/	14	/	-0.4	25	/	4%	-0.9	/	-17
O=C(NCCS(=O)(=O)N1CCN(c2ccccc2)CC1)C1CC(=O)N(c2ccc(F)cc2)C1 (stereo not given)	-1.9	-16	15	0.3	0	-3.5	/	3.1	5	/
CCCCn1c(CN2CCN(c3cccc(Cl)c3)CC2)nc2c1c(=O)n(C)c(=O)n2C	/	-33	/	-0.8	8	/	2%	6.5	/	2
CC(=O)Nc1ccc(NC(=O)CS(=O)(=O)c2cn(CC(=O)N3CCCCC3)c3ccccc23)cc1	2.5	-18	15	1.9	-22	-1.1	0%	-0.9	12	-6
COc1ccc(C(C)(C)C)cc1NC(=O)c1[nH]c(C)c(C(C)=O)c1C	1.1	12	14	1.2	25	3.2	/	3.6	5	9
O=C(CNC(=O)c1ccccc1Cl)OC1CCOC1=O (stereo not given)	5.9	-1	7	2.2	16	0.6	-2%	-1.6	3	-3

These rows are one share of the data; count on the stated rates, not on these rows.
